DUX4 inh – blocks DUX4-driven transcriptional activation. 293T-iDUX4 ZSCAN4-Gaussia luciferase reporter, 24 h; hits give low values. activity change, negative = inhibition, % (concentration not given with the values). 0.8% of 37,000 active;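 active = -10% or lower and over 25 points stronger than a control reporter; inconclusive = -10% or lower with a smaller gap; inactive = above -10%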;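 also: 0% = median of neutral control wells and -100% = median of positive control wells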
DUX4 inh difference – second read-out of DUX4 inh, no call of its own (marks repeat the call); Gaussia minus Italica difference, %; measured here: selective DUX4 reporter inhibition;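 worked out from the two reporters; negative = selective loss of the DUX4 reporter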
DUX4 inh control – second read-out of DUX4 inh, no call of its own (marks repeat the call); activity change, negative = inhibition, %; measured here: Italica tet-on control reporter;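 0 = neutral control and -100 = positive control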
* hit, by the source's call; ? = inconclusive; / = no result given. The list is partial (hit frequency here may not be typical).

SMILES | DUX4 inh | DUX4 inh difference | DUX4 inh control
COc1ccc(NC(=O)Nc2ccc3c(c2)C(=O)N([C@@H](C)CO)C[C@H](C)[C@@H](CN(C)S(=O)(=O)c2c(C)noc2C)OCCCC[C@@H](C)O3)cc1 | -4.0 | 5.0 | -9.0
CCS(=O)(=O)N1CC2(C1)[C@H](c1ccccc1)[C@H](CO)N2C(=O)c1ccccc1 | 14.1 | 8.3 | 5.8
Cc1cccc(-c2ccc([C@H]3[C@H]4CN(C(=O)c5cnccn5)CC(=O)N4[C@H]3CO)cc2)c1 | 19.2 | 6.7 | 12.6
O=C(C[C@H]1C[C@H]2c3cc(NC(=O)Nc4ccccc4F)ccc3O[C@H]2[C@@H](CO)O1)NC1CCCCC1 | 0.1 | -0.7 | 0.7
N#C[C@H]1[C@@H](c2ccc(/C=C/c3ccccc3)cc2)[C@@H](CO)N1C(=O)C1CCCCC1 | 0.7 | 5.0 | -4.3
COc1ccc2c3c([nH]c2c1)[C@@H](CO)N(C(=O)C1CCCCC1)CC31CN(C(=O)NC(C)C)C1 | 11.4 | -3.7 | 15.2
CC(=O)N1CCCCN2[C@H](CO)[C@@H](c3ccc(-c4cccc(C)c4)cc3)[C@@H]2C1 | 4.1 | -8.3 | 12.4
COCC(=O)Nc1ccc2c(c1)[C@@H]1C[C@H](CC(=O)NCc3ccc(-c4ccccc4)cc3)O[C@H](CO)[C@@H]1O2 | -4.0 | 4.6 | -8.6
O=C(c1cccnc1)N1C[C@@H]2[C@H](c3ccccc31)[C@H](CO)N2C(=O)C1CCCC1 | 3.0 | -1.6 | 4.6
O=C(c1ccncc1)N1CC2(C1)[C@@H](c1ccccc1)[C@@H](CO)N2CC1CCCC1 | -28.1* | -25.6* | -2.5*
C[C@H](O)C#Cc1ccc2c(c1)O[C@@H](CN(C)C(=O)Cc1ccccn1)[C@H](C)CN([C@H](C)CO)S2(=O)=O | -6.6 | -2.8 | -3.8
C[C@@H](NC(=O)C[C@@H]1CC[C@H]2[C@@H](COc3ccc(NC(=O)C4CCOCC4)cc3C(=O)N2C)O1)c1ccccc1 | -3.3 | -0.4 | -2.9
O=C(C[C@H]1C=C[C@@H](NC(=O)Cc2cccnc2)[C@H](CO)O1)Nc1ccc(-c2ccccc2)cc1 | -1.4 | -8.1 | 6.7
CC(C)NC(=O)N[C@@H]1CC[C@@H](CC(=O)NC2Cc3ccccc3C2)O[C@@H]1CO | 10.3 | 7.7 | 2.6
CO[C@H]1CN(C)C(=O)c2ccc(NC(=O)c3cccc(Oc4ccccc4)c3)cc2OC[C@H](C)NC[C@@H]1C | ? | / | /
CCS(=O)(=O)N1Cc2cc(C(=O)NCCOC)nc(-c3cccc(-c4ccncc4)c3)c2[C@@H]1CCO | 2.1 | 0.1 | 2.1
COCC(=O)N1[C@H](C#N)[C@@H](c2ccccc2-c2cccc(F)c2)[C@@H]1CO | 13.6 | 7.6 | 6.0
C/C=C/c1ccc([C@@H]2[C@@H](CO)N(C(=O)COC)[C@H]2CNC(=O)CC)cc1 | -1.1 | -0.6 | -0.5
CO[C@H]1CN(C)C(=O)c2cc(NS(C)(=O)=O)ccc2OC[C@@H](C)N(C(=O)NC(C)C)C[C@@H]1C | -1.0 | -4.2 | 3.2
O=C(C[C@@H]1CC[C@@H]2[C@H](COC[C@@H](O)CN2C(=O)c2ccncc2)O1)NCc1ccc(-c2ccccc2)cc1 | 21.8 | 11.0 | 10.8
COc1ccccc1C#Cc1cnc2c(c1)C(=O)N([C@@H](C)CO)C[C@H](C)[C@H](CN(C)S(=O)(=O)c1cn(C)cn1)O2 | 2.5 | 0.4 | 2.1
CCC(=O)N1C[C@@H](C)[C@@H](OC)CN(C)C(=O)c2cc(NC(=O)NC3CCCC3)ccc2OC[C@@H]1C | 1.0 | -4.6 | 5.5
O=C(Nc1cccc(F)c1)N1CC(=O)N2[C@H](CO)[C@H](c3ccc(C#CC4CC4)cc3)[C@@H]2C1 | 2.9 | 14.6 | -11.7
O=C(Nc1ccc(C(F)(F)F)cc1)N1C[C@@H]2N[C@H](C1)C2c1ccc(/C=C/c2ccccc2)cc1 (some centres not stated) | ? | / | /
O=C(c1cnccn1)N1CC(=O)N2[C@H](C1)[C@@H](c1ccc(-c3ccccc3)cc1)[C@@H]2CO | 5.1 | 5.8 | -0.7

An excerpt from above in order of the DUX4 inh control value, low to high:
SMILES | DUX4 inh control
C[C@H](O)C#Cc1ccc2c(c1)O[C@@H](CN(C)C(=O)Cc1ccccn1)[C@H](C)CN([C@H](C)CO)S2(=O)=O | -3.8
C[C@@H](NC(=O)C[C@@H]1CC[C@H]2[C@@H](COc3ccc(NC(=O)C4CCOCC4)cc3C(=O)N2C)O1)c1ccccc1 | -2.9
O=C(c1cnccn1)N1CC(=O)N2[C@H](C1)[C@@H](c1ccc(-c3ccccc3)cc1)[C@@H]2CO | -0.7
CCS(=O)(=O)N1CC2(C1)[C@H](c1ccccc1)[C@H](CO)N2C(=O)c1ccccc1 | 5.8
O=C(C[C@@H]1CC[C@@H]2[C@H](COC[C@@H](O)CN2C(=O)c2ccncc2)O1)NCc1ccc(-c2ccccc2)cc1 | 10.8
Cc1cccc(-c2ccc([C@H]3[C@H]4CN(C(=O)c5cnccn5)CC(=O)N4[C@H]3CO)cc2)c1 | 12.6

The results go on.
SMILES | DUX4 inh | DUX4 inh difference | DUX4 inh control
COc1ccc(-c2ccc(C3[C@H]4CNC[C@@H]3N4Cc3nccs3)cc2)cc1 (some centres not stated) | 5.9 | 3.0 | 2.9
COc1ccc2c3c([nH]c2c1)[C@@H](CO)N(C(=O)c1cccc(F)c1)CC31CN(S(=O)(=O)c2cccs2)C1 | ? | / | /
COc1ccc(NC(=O)N(C)C[C@@H]2Oc3ncc(C#C[C@@H](C)O)cc3C(=O)N([C@@H](C)CO)C[C@H]2C)cc1 | -3.3 | -7.4 | 4.2
COc1ccc(C[C@H]2CCn3cc(nn3)COC[C@@H](Cc3ccccc3)NC2=O)cc1 | 3.3 | 6.2 | -2.9
O=C(C[C@H]1CC[C@@H](NC(=O)C2CCOCC2)[C@H](CO)O1)NCc1ccccc1Cl | 8.0 | 7.0 | 1.0
CO[C@@H]1CN(C)C(=O)c2ccc(NS(C)(=O)=O)cc2OC[C@@H](C)N(C(=O)CN(C)C)C[C@H]1C | -0.3 | -5.2 | 4.8
COC(=O)C[C@@H]1CC[C@H]2[C@@H](COC[C@@H](O)CN2C(=O)Nc2ccccc2OC)O1 | 8.1 | 8.9 | -0.8
C[C@@H]1CC=CC[C@H](c2ccc3c(c2)OCO3)NC(=O)[C@H](C)N(C)C(=O)c2ccccc2O1 (mixture of isomers) | 0.7 | 1.0 | -0.3
O=C(C[C@H]1CC[C@H]2[C@@H](COC[C@H](O)CN2C(=O)Nc2ccccc2)O1)NCc1ccccc1F | 9.9 | 4.7 | 5.2
COc1ccc(NC(=O)N2CC(=O)N3[C@H](CO)[C@H](c4ccc(-c5ccc(C)cc5)cc4)[C@@H]3C2)cc1 | -7.4 | -6.9 | -0.5
Cc1ccc(S(=O)(=O)N[C@H]2CC[C@@H](CCn3cc(C4(O)CCCC4)nn3)O[C@@H]2CO)cc1 | 0.7 | 2.3 | -1.6
COCC(=O)N1C[C@@H](C)[C@@H](OC)CN(C)C(=O)c2cc(NC(=O)Nc3ccccc3)ccc2OC[C@H]1C | -2.9 | -6.2 | 3.3
COC(=O)C[C@@H]1CC[C@H]2[C@@H](COc3ccc(NC(=O)c4cccc(F)c4)cc3C(=O)N2C)O1 | 0.1 | -4.2 | 4.3
C[C@@H]1CN([C@H](C)CO)C(=O)c2cc(NC(=O)Cc3ccccc3)ccc2O[C@H]1CN(C)C(=O)NC1CCCCC1 | -1.0 | -0.6 | -0.4
CC=Cc1ccc2n(c1=O)C[C@H]1[C@H](CO)[C@@H](C(=O)NCCN3CCCC3)N(C(=O)NC(C)C)[C@@H]21 (mixture of isomers) | 4.4 | 5.6 | -1.2
OC[C@H]1[C@H](c2ccc(-c3ccc(F)cc3)cc2)[C@H]2CN(CCC(F)(F)F)CCCCN21 | ? | / | /
CN(C)C(=O)c1ccc(-c2ccc3c(c2)[C@@H]2[C@@H](CCN2C(=O)C2CCOCC2)[C@H](CO)N3C)cc1 | 25.3 | 14.6 | 10.8
CC(C)NC(=O)NCC[C@H]1CC[C@H](NC(=O)c2ccc(F)cc2)[C@H](CO)O1 | -1.5 | -0.2 | -1.3
COc1ccccc1C#Cc1ccc2c(c1)[C@H]1[C@H](CCN1C(=O)c1cccc(F)c1)[C@H](CO)N2 | ? | / | /
COc1ccc(C#Cc2ccc([C@H]3[C@H]4CN(C(=O)NC(C)C)CC(=O)N4[C@H]3CO)cc2)cc1 | -1.4 | 2.0 | -3.4
Cc1noc(C)c1NC(=O)Nc1ccc2c(c1)C(=O)N(C)[C@@H]1CC[C@H](CC(=O)N[C@H]3CCN(Cc4ccccc4)C3)O[C@H]1CO2 | -1.0 | -1.2 | 0.2
Cc1ccc(S(=O)(=O)Nc2ccc3c(c2)C(=O)N([C@@H](C)CO)C[C@@H](C)[C@@H](CN(C)C(=O)NC2CCCCC2)OCCCC[C@@H](C)O3)cc1 | -2.8 | -8.8 | 6.1
C[C@H](CO)N1C[C@H](C)[C@H](CN(C)S(=O)(=O)c2ccc(F)cc2)OCc2ccccc2-c2ccccc2C1=O | -6.6 | -5.5 | -1.1
COc1ccc(S(=O)(=O)Nc2cccc3c2O[C@@H](CN(C)S(=O)(=O)c2cn(C)cn2)[C@@H](C)CN([C@H](C)CO)C3=O)cc1 | -0.6 | -4.8 | 4.2
O=C(C[C@@H]1C=C[C@H](NC(=O)C2CCOCC2)[C@@H](CO)O1)NCCc1cscn1 | -2.0 | -0.4 | -1.6
The list continues.
SMILES | DUX4 inh | DUX4 inh difference | DUX4 inh control
O=C(Nc1ccccc1F)N[C@@H]1CC[C@H](CCNC(=O)C2CC2)O[C@@H]1CO | -1.3 | 1.8 | -3.1
CNC[C@H]1OCCCC[C@@H](C)Oc2ccc(NC(=O)C3CCCCC3)cc2C(=O)N([C@H](C)CO)C[C@@H]1C | -0.5 | -0.3 | -0.2
Cc1ccccc1S(=O)(=O)N1CC[C@@H]2[C@@H](CO)N(C)c3ccc(-c4cccc(F)c4)cc3[C@@H]21 | ? | / | /
CO[C@H]1CC[C@H]2CCN(C)C(=O)C[C@H](c3ccccc3)CN(C)C(=O)c3cc(C#N)ccc3OC[C@H]1O2 | -2.6 | 3.3 | -5.9
CN(C)C(=O)c1ccc(-c2ccc([C@@H]3[C@@H](C#N)N(C(=O)C4CCOCC4)[C@H]3CO)cc2)cc1 | 5.4 | -1.1 | 6.5
COc1ccccc1-c1ccc2c(c1)O[C@@H](CN(C)Cc1ccc3c(c1)OCO3)[C@H](C)CN([C@@H](C)CO)S2(=O)=O | -0.9 | -0.2 | -0.7
CCCNC(=O)Nc1ccc2c(c1)OC[C@H](C)N(S(C)(=O)=O)C[C@@H](C)[C@H](OC)CN(C)C2=O | -2.5 | -4.5 | 1.9
C[C@@H]1CN([C@H](C)CO)C(=O)c2cc(NC(=O)NC3CCCCC3)ccc2O[C@@H](C)CCCCO[C@@H]1CN(C)C(=O)c1ccncc1 | -0.4 | -2.7 | 2.3
O=C(C1CCC1)N1CC2(C1)[C@H](c1ccccc1)[C@@H](CO)N2Cc1nccs1 | 2.6 | 0.8 | 1.7
COc1cccc(NC(=O)N2C[C@H](O)COC[C@@H]3O[C@H](CC(=O)N(C)C)CC[C@H]32)c1 | 10.0 | 5.9 | 4.1
CCCN1[C@H](C(=O)NCC2CC2)[C@@H](CO)[C@@H]2Cn3c(ccc(-c4ccccc4)c3=O)[C@@H]21 | 1.8 | 0.8 | 1.0
COC(=O)N(C)C[C@H]1OCc2ccccc2-c2ccccc2C(=O)N([C@H](C)CO)C[C@H]1C | 4.2 | 9.4 | -5.2
CO[C@H]1CN(C)C(=O)c2cc(NC(=O)c3cnccn3)ccc2OC[C@H](C)N(CCc2ccccc2)C[C@H]1C | 0.1 | 0.6 | -0.5
CS(=O)(=O)N1[C@H](CO)[C@H](c2ccccc2)C12CN(C(=O)c1ccccc1F)C2 | 1.2 | 4.9 | -3.7
CO[C@@H]1CN(C)C(=O)c2ccc(NC(=O)c3ccccc3)cc2OC[C@@H](C)N(C(=O)C2CC2)C[C@@H]1C | 4.7 | 2.0 | 2.7
N#Cc1ccc(-c2ccc([C@H]3[C@@H](CO)N4C(=O)CN(C(=O)C5CCCCC5)C[C@@H]34)cc2)cc1 | -4.7 | -2.8 | -2.0
COc1ccc2c3c(n(C)c2c1)[C@H](CO)NCC31CN(C(=O)c2ccc(F)cc2)C1 | -2.5 | -22.8 | 20.3
C[C@@H]1CCCCO[C@@H](CN(C)C(=O)Nc2cccc3ccccc23)[C@H](C)CN([C@H](C)CO)C(=O)c2cc(NC(=O)CCC(F)(F)F)ccc2O1 | -2.0 | -2.7 | 0.7
Cc1ccccc1S(=O)(=O)N1[C@H](CO)[C@@H](c2ccccc2)[C@@H]1C#N | 0.6 | -1.0 | 1.6
COc1ccc(S(=O)(=O)Nc2ccc3c(c2)C(=O)N([C@H](C)CO)C[C@@H](C)[C@@H](CN(C)S(=O)(=O)c2ccc(Cl)cc2)OCCCC[C@H](C)O3)cc1 | 2.7 | 2.4 | 0.3

Two of the compounds above, as tab-separated lines:
SMILES	DUX4 inh	DUX4 inh difference	DUX4 inh control
COCC(=O)N1[C@H](C#N)[C@@H](c2ccccc2-c2cccc(F)c2)[C@@H]1CO	13.6	7.6	6.0
C/C=C/c1ccc([C@@H]2[C@@H](CO)N(C(=O)COC)[C@H]2CNC(=O)CC)cc1	-1.1	-0.6	-0.5

Entries of single compounds, looked up by structure.
N#Cc1ccc(-c2ccc([C@H]3[C@@H](CO)N4C(=O)CN(C(=O)C5CCCCC5)C[C@@H]34)cc2)cc1 is listed as DUX4 inh: -4.7; DUX4 inh difference: -2.8; DUX4 inh control: -2.0
O=C(C1CCC1)N1CC2(C1)[C@H](c1ccccc1)[C@@H](CO)N2Cc1nccs1 is listed as DUX4 inh: 2.6; DUX4 inh difference: 0.8; DUX4 inh control: 1.7
